Screening data: PubChem BioAssay, National Center for Advancing Translational Sciences (NCATS)
D2 ag – agonists of human D2 dopamine receptor; P14416; HEK293 T-REx D2 cells, calcium flux agonist mode; activation, % at 2 µM; 0.53% of 340,000 active; AID 485358;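 active means activation over 3 SD above normal in the single-dose calcium agonist read, cut at about 30% in these data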; further: 0% is about no effect
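Tetracycline-induced HEK293 Trex cells with D2 receptor force-coupled to calcium signaling, plated overnight at 30 C and loaded with no-wash calcium dye. Calcium flux read kinetically for 180 s after compound addition; responses flag agonists.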
RXFP1 antagonist – RXFP1 (human) relaxin receptor antagonism | Q9HBX9 | 0.59% of 350,000 active | AID 1259400 | HEK293-RXFP1, relaxin-stimulated cAMP HTRF, 30 min; stronger effect = lower value | activity change, negative = inhibition, % at 57.5 µM;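 active means activity change of -60% or lower, but not beyond a set lower limit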; further: on the % scale 0 is the no-effect control and ±100 the full control effect
Target sequence (Q9HBX9 whole entry, looked up): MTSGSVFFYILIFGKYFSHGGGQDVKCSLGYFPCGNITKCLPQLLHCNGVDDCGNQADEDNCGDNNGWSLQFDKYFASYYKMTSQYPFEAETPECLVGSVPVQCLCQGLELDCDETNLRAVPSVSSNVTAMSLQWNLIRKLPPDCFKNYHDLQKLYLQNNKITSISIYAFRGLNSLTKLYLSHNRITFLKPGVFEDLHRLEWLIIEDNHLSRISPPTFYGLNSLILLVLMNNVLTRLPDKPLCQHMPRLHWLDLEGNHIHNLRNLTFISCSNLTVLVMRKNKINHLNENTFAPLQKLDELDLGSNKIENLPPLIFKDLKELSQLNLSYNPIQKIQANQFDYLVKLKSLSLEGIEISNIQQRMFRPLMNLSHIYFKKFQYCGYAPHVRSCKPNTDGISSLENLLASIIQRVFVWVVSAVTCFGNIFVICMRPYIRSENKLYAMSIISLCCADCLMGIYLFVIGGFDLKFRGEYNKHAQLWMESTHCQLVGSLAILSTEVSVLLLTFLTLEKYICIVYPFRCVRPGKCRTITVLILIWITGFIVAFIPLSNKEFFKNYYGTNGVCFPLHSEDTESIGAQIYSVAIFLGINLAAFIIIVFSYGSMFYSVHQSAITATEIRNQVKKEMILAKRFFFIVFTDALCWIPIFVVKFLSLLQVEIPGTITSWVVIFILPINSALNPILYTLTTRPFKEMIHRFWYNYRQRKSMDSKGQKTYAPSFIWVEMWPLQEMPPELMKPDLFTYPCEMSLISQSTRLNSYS
D2 antag – antagonizes the human D2 dopamine receptor | HEK293 TREx D2 cells, calcium flux, dopamine EC80 | 2% of 340,000 active | inhibition, % at 10 µM | AID 485344 | P14416; in the data active means inhibition above about 30%; further: 0% is about no effect
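Dopamine at EC80 is the agonist stimulus; test compounds precede it by 180 s. Calcium flux read kinetically in a force-coupled, inducible HEK293 T-REx D2 cell line.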
D2 PAM – positive allosteric modulators of human D2 dopamine receptor; HEK293 T-REx D2, calcium flux, EC20 dopamine potentiation; potentiation, % at 10 µM; 0.34% of 340,000 active;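 active means potentiation over 3 SD above the plate norm, cut at about 30% in these data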; further: 0% is about no effect
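Calcium flux readout, no-wash dye, 1 read/s. Inducible HEK293 Trex D2 line, overnight 30 C. Compound alone 180 s (agonist flags), then EC20 dopamine, another 180 s to score potentiation.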
RXFP1 agonist – activates the human relaxin receptor RXFP1; Q9HBX9; HEK293T-RXFP1 cAMP TR-FRET, 30 min; response scale: percent of porcine relaxin response, buffer zero; Potency, µM (series often up to 57.5 µM), for inactives: at the highest dose activation, actives largely listed as activators; 0.3% of 370,000 active; active means well fitted activation curve with a large enough effect; further: potency means the concentration at half of the fitted maximal effect; on the % scale 0 is the no-effect control and ±100 the full control effect; nearly all actives have a fitted effect of over 60% in size; many of its hits are not listed in these tables
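cAMP rise read by TR-FRET after 30 min, 37C compound exposure (up to 58 uM) in RXFP1-transfected HEK293 cells with Ro 20174 present. EC50 from Hill-equation fits, with 29 nM porcine relaxin as 100% and buffer as basal.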
* = called active by the depositor; nt = no result given; & = joins results of further samples; ! = not active in a repeat.

The opening 7 records, to show the layout:
(1) OCc1cccnc1
(2) COc1ccc2cc(C(C)C(=O)O)ccc2c1 (stereo unspecified)
(3) CN1CCCN=C1/C=C/c1cccs1
(4) CC(=O)[C@H]1CC[C@H]2[C@@H]3CCC4=CC(=O)CC[C@]4(C)[C@H]3CC[C@]12C
(5) CC(=O)O[C@]1(C(C)=O)CCC2C3C=C(C)C4=CC(=O)CC[C@]4(C)C3CC[C@@]21C (stereo partly specified)
(6) Nc1[nH]c(=O)ncc1F
(7) OC(CCN1CCCCC1)(c1ccccc1)C1CCCCC1 (stereo unspecified)
assay / entry,1,2,3,4,5,6,7
D2 ag,nt,-1.1,0.7,1.1&-0.1&0.3,0.3,0.9&11,-1.1
RXFP1 antagonist,12,nt,5&21,nt,-4,10,-15
D2 antag,nt,-9,6,-2&8&5,5,-15&2,46*
D2 PAM,nt,10,1,-6&-2&14,2,4&7,-25
RXFP1 agonist,nt,0.3%,-2.4%,5.1%&-0.6%&2.1%,0.2%,1.4%&-0.8%,0.6%

The whole of this part, from the first entry:
(1) OCc1cccnc1
(2) COc1ccc2cc(C(C)C(=O)O)ccc2c1 (stereo unspecified)
(3) CN1CCCN=C1/C=C/c1cccs1
(4) CC(=O)[C@H]1CC[C@H]2[C@@H]3CCC4=CC(=O)CC[C@]4(C)[C@H]3CC[C@]12C
(5) CC(=O)O[C@]1(C(C)=O)CCC2C3C=C(C)C4=CC(=O)CC[C@]4(C)C3CC[C@@]21C (stereo partly specified)
(6) Nc1[nH]c(=O)ncc1F
(7) OC(CCN1CCCCC1)(c1ccccc1)C1CCCCC1 (stereo unspecified)
(8) CN1CCC[C@H]1c1cccnc1
assay / entry,1,2,3,4,5,6,7,8
D2 ag,nt,-1.1,0.7,1.1&-0.1&0.3,0.3,0.9&11,-1.1,-1.3&-0.1
RXFP1 antagonist,12,nt,5&21,nt,-4,10,-15,nt
D2 antag,nt,-9,6,-2&8&5,5,-15&2,46*,3&11
D2 PAM,nt,10,1,-6&-2&14,2,4&7,-25,11&15
RXFP1 agonist,nt,0.3%,-2.4%,5.1%&-0.6%&2.1%,0.2%,1.4%&-0.8%,0.6%,0.4%&0.0%

(9) COCCCC/C(=N\OCCN)c1ccc(C(F)(F)F)cc1
(10) CC[C@H]1OC(=O)[C@H](C)[C@@H](O[C@H]2C[C@@](C)(OC)[C@@H](O)[C@H](C)O2)[C@H](C)[C@@H](O[C@@H]2O[C@H](C)C[C@H](N(C)C)[C@H]2O)[C@](C)(O)C[C@@H](C)C(=O)[C@H](C)[C@@H](O)[C@]1(C)O
(11) Nc1c(Br)cc(Br)cc1CNC1CCC(O)CC1 (stereo unspecified)
(12) C[C@H]1O[C@H]1P(=O)(O)O
(13) CCC(CO)[n+]1c(C)cc(/C=C2\Sc3ccccc3N2Cc2ccccc2)cc1C (stereo unspecified)
(14) C#C[C@]1(O)CCC2C3CCC4=CC(=O)CC[C@@H]4C3CC[C@@]21C (stereo partly specified)
(15) CC(C)n1cc(/C=C/c2cc[n+](C)cc2)c2ccccc21
(16) O=C(c1ccc(OCCN2CCCCC2)cc1)c1c(-c2ccc(O)cc2)sc2cc(O)ccc12
assay / entry,9,10,11,12,13,14,15,16
D2 ag,1.0&4.7&-2.7&-1.2,-0.3,-0.4,0.0&0.7,8.3,-0.8,5.8,-0.5
RXFP1 antagonist,6,nt,nt,nt,-39,nt,-7,-39
D2 antag,54*!,8,7,0&-27,-6,0,17,-2
D2 PAM,2&1&-2&8,16,-6,6&-4,-14,25,5,-14
RXFP1 agonist,1.3%&1.2%&0.5%&-1.6%,-0.9%,-0.6%&3.0%,1.5%&1.9%,3.2%,2.5%,-2.1%,0.3%

(17) Cc1cn[nH]c1
(18) CC(=O)OCC(=O)[C@@]1(O)CC[C@H]2[C@@H]3CCC4=CC(=O)C=C[C@]4(C)[C@H]3[C@@H](O)C[C@@]21C
(19) CC(=O)CC(c1ccccc1)c1c(O)c2ccccc2oc1=O (stereo unspecified)
(20) C#C[C@]1(O)CC[C@H]2[C@@H]3CCC4=C(CCC(=O)C4)[C@H]3CC[C@@]21C
(21) CC(=O)O[C@]1(C(C)=O)CC[C@H]2[C@@H]3C=C(C)C4=CC(=O)CC[C@]4(C)[C@H]3CC[C@@]21C
(22) Nc1ccn([C@H]2CS[C@@H](CO)O2)c(=O)n1
(23) CC(C)[N+]1(C)[C@@H]2CC[C@H]1CC(OC(=O)C(CO)c1ccccc1)C2 (stereo partly specified)
(24) O=C(O)[C@H](O)[C@@H](O)C(=O)O
assay / entry,17,18,19,20,21,22,23,24
D2 ag,-0.2,-3.8,-1.4&-1.7&-0.6,1.2,1.4&-0.1,0.5,1.6&0.1,-0.7
RXFP1 antagonist,-3,2,11,nt,-17,nt,nt,nt
D2 antag,-10,-22,-1&5&-18,12,-16&-17,-1,12&5,-12
D2 PAM,2,-11,-7&12&-5,9,10&20,-7,1&0,-7
RXFP1 agonist,-0.7%,2.5%,0.1%&2.1%&0.4%,-1.3%,-0.3%&2.4%,2.5%,-0.4%&0.1%&0.2%,-0.4%

(25) C[n+]1cc(C(=O)N2CCCCC2)ccc1/C=C/c1c[nH]c2ccccc12
(26) O=C(N[C@H](CO)[C@H](O)c1ccc([N+](=O)[O-])cc1)C(Cl)Cl
(27) CN(C)CCN(Cc1cccs1)c1ccccn1
(28) NCCS
assay / entry,25,26,27,28
D2 ag,9.0,nt,nt,0.6
RXFP1 antagonist,-8,19,-8,-11
D2 antag,3,nt,nt,7
D2 PAM,-15,nt,nt,4
RXFP1 agonist,-4.8%,nt,-0.7%,2.0%

Arranged by SMILES length (low to high): part of the list above.
(8) CN1CCC[C@H]1c1cccnc1
(3) CN1CCCN=C1/C=C/c1cccs1
(27) CN(C)CCN(Cc1cccs1)c1ccccn1
assay / entry,8,3,27
D2 ag,-1.3&-0.1,0.7,nt
RXFP1 antagonist,nt,5&21,-8
D2 antag,3&11,6,nt
D2 PAM,11&15,1,nt
RXFP1 agonist,0.4%&0.0%,-2.4%,-0.7%

Not all compounds are listed. The share of hits here may be higher or lower than overall.
